# AF4-AF9 inh = inhibitors of AF4 peptide binding to AF9, primary screen, biochemical, AlphaScreen, biotin-AF4 peptide, FLAG-AF9, single point | Protein AF-9 (Homo sapiens), P42568 | inhibition, % at 10 µM | actives 0.47% (n = 350,000) | AID 651704, 2012;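 active = every replicate reaching a set inhibition limit, whatever the replicate mean, cut at about 25% in these data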;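 also: 0% = plate neutral control median and 100% = total signal loss; the record names both 10 and 1 µM as test concentration; the first replicate is given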
# Target sequence (P42568 whole entry, looked up): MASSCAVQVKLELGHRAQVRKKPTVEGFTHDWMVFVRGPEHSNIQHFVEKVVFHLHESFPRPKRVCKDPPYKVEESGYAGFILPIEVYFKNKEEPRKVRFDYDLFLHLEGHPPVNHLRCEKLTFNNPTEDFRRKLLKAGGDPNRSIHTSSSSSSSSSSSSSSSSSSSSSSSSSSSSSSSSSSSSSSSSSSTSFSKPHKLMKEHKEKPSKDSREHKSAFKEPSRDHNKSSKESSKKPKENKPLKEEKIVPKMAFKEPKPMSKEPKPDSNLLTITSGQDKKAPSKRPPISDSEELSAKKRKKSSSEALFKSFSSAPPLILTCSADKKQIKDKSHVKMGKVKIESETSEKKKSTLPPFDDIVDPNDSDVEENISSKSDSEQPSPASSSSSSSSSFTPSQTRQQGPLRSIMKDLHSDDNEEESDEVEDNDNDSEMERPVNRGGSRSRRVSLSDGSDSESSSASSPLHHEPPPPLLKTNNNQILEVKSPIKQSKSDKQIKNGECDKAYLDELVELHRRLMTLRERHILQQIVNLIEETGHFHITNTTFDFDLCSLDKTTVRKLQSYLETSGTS
# Vif TR-FRET = inhibitors of Vif binding to APOBEC3G peptide, primary screen, biochemical, TR-FRET, GST-Vif 1-94, biotin-A3G peptide, dose response retest (AID 1117319); Virion infectivity factor (Human immunodeficiency virus type 1 group M subtype B (isolate …; TR-FRET GST-Vif / biotin-A3G peptide binding; higher % means a stronger effect; test concentration not given here; strong numbers were not always called active; inhibition, %, or IC50 in µM where a hit was titrated; actives 0.57% (n = 260,000);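 active = above the screen mean plus three standard deviations and confirmed in dose response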;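 also: Vif residues 1-94 fused to GST binding biotinylated APOBEC3G peptide 110-148; 0% = full assay without inhibitor and 100% = GST in place of GST-Vif; retest series ran down from 100 µM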
# Starred values were filed as active, the others as inactive; & = joins results of further samples.
Vif TR-FRET	AF4-AF9 inh	Compound
-6%	-11	N#Cc1ccc(COC(=O)CN2C(=O)NC3(CCCC3)C2=O)cc1
17%	8.9	Cc1cc(C)nc(NN=CC2=C(N3CCOCC3)/C(=C/c3ccc(Cl)cc3)CC2)n1
0%	0.4&-1.0	C[C@H](CO)N1C[C@H](C)[C@H](CN(C)C(=O)Nc2ccc3c(c2)OCO3)Oc2ncc(Br)cc2C1=O
-7%	1.6	Cc1[nH]c(=O)[nH]c(=O)c1NC(=O)c1ccccc1[N+](=O)[O-]
-2%	-1.1	CC12CCC(=O)C=C1CCC1C2CCC2(C)C1CC1C3C(=O)N(Cc4ccccc4)C(=O)C3CC(=O)C12 (centres undefined)
12%	-3.3	O=C(Nc1oc2ccccc2c(=O)c1-c1ccc2c(c1)OCO2)c1ccco1
-1%	-2.8	O=Nc1c(O)cc(O)c2ccccc12
-3%	7.6	O=C1CCc2cc(S(=O)(=O)NC(C(=O)NCc3cccnc3)c3ccccc3)ccc2N1 (centres undefined)
0%	-2.7	CC(=O)c1cccc(NC(=O)COC(=O)Cc2ccc(Cl)cc2)c1
-2%	-4.9	CC1(C)CN=C(c2ccccc2)NC1
-1%	-1.2	COc1ccc2c(c1)C(O)C(CO)C(C(=O)O)C2 (centres undefined)
-2%	-6.9	COc1ccccc1N1CCN(C(=O)CCCn2c(=S)[nH]c3ccccc3c2=O)CC1
-1%	0.4&-0.2	C[C@@H]1CN([C@H](C)CO)C(=O)CCCn2cc(nn2)CO[C@H]1CN(C)S(=O)(=O)c1ccc(C#N)cc1
-3%	1.3	CCOc1ccc(S(=O)(=O)N2CCN(CCNS(=O)(=O)c3ccc(C)cc3)CC2)cc1
-8%	0.6	CCc1cccc(CC)c1N1C(=O)COCC1=O
6%	-0.6	O=C(COC(=O)c1ccco1)Nc1cccc(S(=O)(=O)N2CCOCC2)c1
5%	1.5	COc1ccc2ccc(O)c(CN3CCN(S(=O)(=O)c4cccc(C(F)(F)F)c4)CC3)c2c1
7%	8.0	CCOC(=O)C1CCN(C(=O)COC(=O)CNS(=O)(=O)c2ccc(SC)c([N+](=O)[O-])c2)CC1
2%	-2.7	O=C(O)C(=Cc1cccc([N+](=O)[O-])c1)c1ccccc1
-6%	-1.4	Cc1nccn1CC(=O)c1ccccc1
4%	-0.1	O=C(NCC1COc2ccccc2O1)c1ccc(F)c(S(=O)(=O)N2CCOCC2)c1 (centres undefined)
-5%	0.1	Cc1ccc(NC(=O)c2ccc3c(=O)n4c(nc3c2)CCC4)cc1S(=O)(=O)N(C)C
7%	-1.1	CC(C)N(C(=O)[C@H]1C[C@H](CC(=O)NCCCn2ccnc2)C(=O)N2CCc3c([nH]c4cc(CCC(=O)N(C)C)ccc34)[C@]12C)C(C)C
-1%	-0.8	Oc1ccc(-c2nccs2)cc1
4%	0.2	Clc1nc(NC2CCCCC2)c2cn[nH]c2n1
2%	0.0	Cc1ccc(S(=O)(=O)NCc2nnnn2-c2ccc(F)cc2)cc1
-4%	2.3&4.6	C[C@H]1CN([C@@H](C)CO)S(=O)(=O)c2ccc(Br)cc2O[C@H]1CN(C)Cc1ccc(F)cc1
-4%	2.8	COc1ccc(NS(=O)(=O)c2cccc(C(=O)N/N=C/c3ccccc3OC)c2)cc1
-6%	-1.5	CC(=O)Nc1ccc(SCC(=O)NC(=O)c2ccc(Cl)cc2)cc1
-1%	-6.5	COc1cc(NC(=O)CNC(=O)Cn2cnc3sc(C)c(C)c3c2=O)cc(OC)c1OC

# Given bar-delimited: entries from further up
Compound | Vif TR-FRET | AF4-AF9 inh
COc1ccc2c(c1)C(O)C(CO)C(C(=O)O)C2 (centres undefined) | -1% | -1.2
COc1ccccc1N1CCN(C(=O)CCCn2c(=S)[nH]c3ccccc3c2=O)CC1 | -2% | -6.9
C[C@@H]1CN([C@H](C)CO)C(=O)CCCn2cc(nn2)CO[C@H]1CN(C)S(=O)(=O)c1ccc(C#N)cc1 | -1% | 0.4&-0.2
CCOc1ccc(S(=O)(=O)N2CCN(CCNS(=O)(=O)c3ccc(C)cc3)CC2)cc1 | -3% | 1.3
CCc1cccc(CC)c1N1C(=O)COCC1=O | -8% | 0.6

# Next part:
Vif TR-FRET	AF4-AF9 inh	Compound
-5%	-2.0	CN(CC(=O)Nc1ccc(F)c(F)c1F)C(=O)C1CCCN1C(=O)c1cccs1 (centres undefined)
-2%	-3.6	O=C(OCC1COC(c2ccccc2)(c2ccccc2)O1)c1ccccc1 (centres undefined)
-4%	5.1	OC(c1cc(-c2cccc(Cl)c2)nc2ccccc12)C1CCCCN1 (centres undefined)
1%	11	CCN(CC(=O)Nc1ccc(NC(C)=O)cc1)C(=O)/C=C/c1c(C)nn(-c2ccc(F)cc2)c1Cl
3%	-17	COc1ccccc1C(=O)OCC(=O)NC12CC3CC(CC(C3)C1)C2
2%	-1.8	CS(=O)(=O)c1cccc(C(=O)OCC(=O)c2ccc3c(c2)OCCO3)c1
9%	-43	CC1CCCCC12NC(=O)N(CC(=O)N1CCN(S(=O)(=O)c3ccc4c(c3)CCC4)CC1)C2=O (centres undefined)
-5%	-1.7	CNS(=O)(=O)c1ccc(CNC[C@H]2O[C@@H](n3cnc(C(N)=O)n3)[C@H](O)[C@@H]2O)cc1
-1%	-0.3	O=C(OCc1cn([C@H]2CN(Cc3cccs3)[C@@H](c3ccc(Cl)cc3)C[C@@H]2O)nn1)c1ccccc1
0%	0.9	Cc1ccccc1-c1n[nH]nc1C1=CC(=O)CC(C)(C)C1
2%	1.0	CCN1C(=O)[C@H]2[C@@H](c3ccc(C)cc3)N[C@]3(CCCN(Cc4ccco4)C3=O)[C@H]2C1=O
0%	0.9	COc1ccccc1N1CCN(CC(=O)NC(=O)NCc2ccccc2)CC1
-6%	-1.2	O=C(COC(=O)c1ccccc1)NCCCCc1ccccc1
2%	0.8	c1coc(-c2nc3ccccc3s2)c1
5%	-0.9	COc1cccc(C(=O)Nc2ccc3nc4n(c(=O)c3c2)CCCCC4)c1
3%	-0.7	Cc1ccc(NC(=O)CSCC(=O)N(C)CC(=O)Nc2ccccc2C(F)(F)F)cc1
-3%	-4.7	COc1ccccc1N1CC(C(=O)OCC(=O)c2c(N)n(C)c(=O)n(C)c2=O)CC1=O (centres undefined)
-3%	3.3	CC(C)NC1(C#N)CCN(Cc2ccccc2)CC1
-1%	-2.2	O=C(COc1ncnc2sccc12)NC1CCCCC1
-5%	-9.5	O=C(Cc1ccc2c(c1)OCCO2)Nc1cc(Cl)ccc1N1CCOCC1
9%	-1.4	CCOC(=O)c1c(C)[nH]c(C(=O)OCc2nc3ccsc3c(=O)[nH]2)c1C
9%	-0.5	CC(=O)c1ccc(OCC(=O)NCCC2=CCCCC2)cc1
-1%	-2.4	O=C(CN1CCN(CC(=O)c2ccccc2)CC1)c1ccccc1
-16%	0.1	CC(C)CN(C(=O)CSc1ccc2c(c1)OCCO2)c1c(N)n(CC(C)C)c(=O)[nH]c1=O
1%	-0.8&1.7&3.6	C[C@H]1CN([C@@H](C)CO)S(=O)(=O)c2ccc(Br)cc2O[C@@H]1CN(C)S(=O)(=O)c1ccccc1
1%	9.7	COc1ccc([C@H]2CN(c3ccc(OC)cc3)C(=O)[C@@H]2CC(=O)Nc2ccccc2)cc1
4%	1.6	O=C(NCCS(=O)(=O)N1CCN(c2ccccc2)CC1)C12CC3CC(CC(C3)C1)C2
-5%	2.8	CCC(=O)CN(Cc1cc(OC)ccc1OC)S(=O)(=O)c1ccccc1Br
-2%	2.6	CCN(CC)C(=O)C1=C(C)N(Cc2ccc(F)cc2)C(=O)C(CC(=O)NCC2CCCCC2)C1 (centres undefined)
-24%	-0.3	COc1cc2oc(=O)cc(-c3ccc(-c4ccc(C)cc4)cc3)c2c(OC)c1OC

# 3 compounds drawn at random from those above:
Vif TR-FRET	AF4-AF9 inh	Compound
-1%	-2.2	O=C(COc1ncnc2sccc12)NC1CCCCC1
-5%	-9.5	O=C(Cc1ccc2c(c1)OCCO2)Nc1cc(Cl)ccc1N1CCOCC1
-1%	-2.4	O=C(CN1CCN(CC(=O)c2ccccc2)CC1)c1ccccc1

# Additional results follow:
Vif TR-FRET	AF4-AF9 inh	Compound
-5%	-1.3	COc1ccc2[nH]c3c(c2c1)CCN1C(=O)C(CC(=O)NCCCn2ccnc2)C[C@H](C(=O)N2CCOCC2)[C@@]31C (some centres undefined)
1%	-0.8	c1ccc(CCNCc2cccs2)nc1
5%	-4.3	Cn1c(C(=O)N2CCCC2)cc2c(=O)n(C)c3ccccc3c21
-3%	2.9	CC1CCC2(CC1)NC(=O)N(CC(=O)Nc1cccc(S(=O)(=O)N(C)c3ccccc3)c1)C2=O (centres undefined)
-5%	0.0	Clc1ccccc1NN(Cc1ccccn1)c1ccccc1Cl
-2%	2.0	NNC(=O)Cc1cccc2ccc(Cl)cc12
4%	-0.4	CCCCCC(=O)N1C[C@@H](n2cc(C3CC3)nn2)[C@H](O)C[C@@H]1c1ccccc1
-6%	-3.6	COc1ccc(NC(=O)CCC(=O)c2ccc(F)cc2)cc1
-14%	-2.0	Cc1nc(NC(=O)c2ccccc2)sc1-c1cc(C(=O)N2CCOCC2)nn1Cc1ccccc1
-4%	-2.1	CCc1cc(C(=O)N2CCN(C(=O)c3ccccc3)CC2)sc1C
2%	1.9	COc1cc(C2c3[nH]c4ccccc4c3CC3COC(=O)N32)cc(OC)c1O (centres undefined)
-2%	4.9&2.7	C[C@H]1CN([C@@H](C)CO)S(=O)(=O)c2ccc(Br)cc2O[C@H]1CN(C)Cc1ccccc1F
3%	-1.3	CCOC(=O)c1c(NC(=O)COC(=O)CCNS(=O)(=O)c2ccccc2)sc(C(=O)N(C)C)c1C
-3%	-8.7	O=C1CNC(c2ccccc2)C(c2ccccc2)N1 (centres undefined)
-1%	0.3&-3.7	C[C@H]1CN([C@@H](C)CO)C(=O)CCCn2cc(nn2)CO[C@@H]1CN(C)C(=O)Nc1ccccc1C(F)(F)F
-4%	-2.3	Cc1ccc2nc(COC(=O)CNC(=O)c3ccccc3)cn2c1
7%	0.6	CC(C)c1ccc(S(=O)(=O)N2CCN(C(C)C(=O)NC3CCCC3)CC2)cc1 (centres undefined)
-4%	-1.4	COc1ccc(CN2C(=O)C(CC(=O)NC3CCCC3)CC(C(=O)N(C(C)C)C(C)C)=C2C)cc1 (centres undefined)
2%	-1.9	Cc1cc(C(=O)CCC(=O)Nc2cccc(F)c2)c(C)s1
-4%	-0.4	Cc1ccc([C@H]2C[C@@H](n3cc(COC(=O)c4ccccc4)nn3)[C@H](O)CN2CC2CCCCC2)cc1
1%	-0.2	COc1ccccc1N1CCCSC1=Nc1ccccc1
-2%	-0.8&0.5	C[C@H]1CN([C@@H](C)CO)C(=O)CCCn2cc(nn2)CO[C@@H]1CN(C)C(=O)Nc1ccc(C(F)(F)F)cc1
-13%	14	CN(C)c1ccc(C=C2C=CC=C2)cc1
2%	5.8	C=CCc1cc(C=Nc2ccc(N3CCOCC3)cc2)cc(OCC)c1O
-3%	1.3	CC(C)Nc1ncnc2[nH]ncc12
7%	1.3	CC(C)c1ccc(C2(C)NC(=O)N(C(C)C(=O)Nc3ccc(N4CCOCC4)cc3)C2=O)cc1 (centres undefined)
-7%	-1.6	O=C1NC(=S)S/C1=C\c1cc(Cl)cc(Cl)c1O
-1%	-2.1	COc1ccc2[nH]c3c(c2c1)CCN1C(=O)C(CC(=O)NCCc2ccccn2)C[C@H](C(=O)N(C(C)C)C(C)C)[C@@]31C (some centres undefined)
-3%	-0.4	O=C(CCNC(=O)OCC1c2ccccc2-c2ccccc21)NOCc1ccccc1
3%	-1.9	CCN(C[C@H]1N[C@@](C)(C(=O)OC)[C@H]2C(=O)N(Cc3ccccc3)C(=O)[C@@H]12)C(=O)COC

Vif TR-FRET	AF4-AF9 inh	Compound
4%	-7.9	CC(C)[C@H]1COCCS(=O)(=O)N1Cc1ccccc1-c1cccc2c1oc1ccccc12
-11%	-3.3	Cc1cccc(OCC(=O)N(Cc2nnc(-c3ccccc3Cl)o2)C2CC2)c1
-3%	-1.4	O=C1C2CCCCN2C(=O)N1CCCN1CCN(c2cccc(C(F)(F)F)c2)CC1 (centres undefined)
-3%	2.6	CC(=O)C1CCC2C3CCC4CC(OC(=O)CCC(=O)O)CCC4(C)C3C(=O)CC12C (centres undefined)
-4%	5.1	O=C(O)c1cscc1-c1cccc2ccccc12
-7%	1.4	Cc1cc(C)cc(C(=O)N2CCCCC2)c1
-1%	1.1	COc1ccccc1CN(C)CC(=O)Nc1cccc(S(=O)(=O)N2CCCCC2)c1
-8%	-4.8	COc1cccc(CNC(=O)COC(=O)c2ccc(C(=O)c3ccccc3)cc2)c1
3%	-1.0	O=C(CC1SC(N2CCOCC2)=NC1=O)Nc1ccc(Cl)cc1 (centres undefined)
5%	11	CN(C(=O)c1ccc(NC(=O)Cc2ccc(NC(=O)C3CCN(C(=O)c4ccccc4)CC3)cc2)cc1)C1CCCC1
11%	-0.3	CCOC(=O)C1=CN(Cc2ccco2)S(=O)(=O)NC1c1ccc(Br)cc1F (centres undefined)
3%	3.6	Cc1c(NC(=O)c2cccc(NC(=O)COc3ccccc3)c2)c(=O)n(-c2ccccc2)n1C
-3%	-1.0	O=C(CN1CCOCC1)N1CCOCC1
0%	5.4	CC1=C(C(=O)Nc2cccc(C(=O)NCC(C)c3ccccc3)c2)SCCO1 (centres undefined)
1%	12	O=C(COC(=O)CCNS(=O)(=O)c1ccc(Cl)cc1)Nc1ccccc1OC(F)F

# These rows are one share of the data; count on the stated rates, not on these rows.
